# Screening data deposited in PubChem BioAssay by National Center for Advancing Translational Sciences (NCATS).
# NS1 inh: qHTS Assay for Inhibitors of Influenza NS1 Protein Function. S. cerevisiae slowed by influenza A NS1, growth recovery by OD600. hit rate 0.4% among 270,000. Potency, µM (series often up to 46.1 µM), for the others: at the highest dose activity, positive = more growth. AID 2326, 2010; further: actives are rising curves; nearly all actives have a fitted effect of over 50% in size
#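 A cell-based growth assay was used: compounds that relieve NS1-induced slow growth of budding yeast raise OD600. Assay medium was yeast nitrogen base with ammonium sulphate and -URA supplement, pH 6.0, with 2% galactose.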
# RE007 growth inh: qHTS Assay for Inhibitors of the HIV-1 protein Vpr; hit rate 0.21% among 360,000; S. pombe RE007 Vpr strain, BacTiter-Glo ATP luminescence, 24 h; control for the full effect not named in the record; Potency, µM (top dose mostly 92.2 µM), without a hit: at the highest dose activity change, negative = less growth; active = well fitted falling curve with a large enough effect; inconclusive = small, poorly fitted or top-dose-only effect; inactive = no such curve, though single readings can be large or run the other way;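 further: on the % scale 0 is the no-effect control and ±100 the full control effect; nearly all actives have a fitted effect of over 50% in size; the assay follows cell death caused by Vpr and the record does not say whether a fall means rescue or toxicity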
#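 Fission yeast RE007 carrying one integrated HIV-1 vpr copy, seeded at OD 0.01 in PMG+AL medium with 23 nL pinned compound. Grown 24 h at 30 degrees; viability read by BacTiter-Glo luminescence after 5 min.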
# SARS PLP yeast: qHTS of Yeast-based Assay for SARS-CoV PLP | hit rate 0.19% among 330,000 | S. cerevisiae expressing SARS-CoV PLpro, growth rescue; control for the full effect not named in the record | Potency, µM (titrated, usually from 32.9 µM), without a hit: at the highest dose activity, positive = growth rescue; further: 0% is about no effect; nearly all actives have a fitted effect of over 55% in size; growth read by luminescence after 48 h
# Lassa entry inh: qHTS for Inhibitors of binding or entry into cells for Lassa Virus | Lassa virus pseudotype entry inhibition, cell reporter; control for the full effect not named in the record | Potency, µM (top dose mostly 37.9 µM), without a hit: at the highest dose activity change, negative = inhibition, actives largely listed as inhibitors | hit rate 1.2% among 300,000; active means well fitted inhibition curve with a large enough effect; inconclusive means small, poorly fitted or top-dose-only effect, or effect the other way; inactive means flat fitted curve, though single readings scatter; tested in HEK293 cells; further: on the % scale 0 is the no-effect control and ±100 the full control effect; nearly all actives have a fitted effect of over 50% in size; luciferase read-out
# StopGo reporter: High Throughput Screening for Foot and Mouth Disease Virus Antivirals | human cells with a luciferase reporter of 2A StopGo recoding; control for the full effect not named in the record | Potency, µM (series often up to 57.9 µM), for inactives: top-dose signal change, negative = less light | hit rate 1.2% among 410,000 | AID 1159524, 2015; active = well fitted falling curve with a large enough effect; inconclusive = small, poorly fitted or top-dose-only effect; inactive = no such curve, though single readings can be large or run the other way; tested in HEK293T cells; further: on the % scale 0 is the no-effect control and ±100 the full control effect; nearly all actives have a fitted effect of over 45% in size; luciferase light after 4 h
# Cruzain noTriton: qHTS Assay for Promiscuous and Specific Inhibitors of Cruzain (without detergent) | Cruzipain (Trypanosoma cruzi), P25779 | purified cruzain, Z-FR-AMC fluorescence, no detergent | Potency, µM, without a hit: max response, negative = inhibition, most hits filed as inhibitors | hit rate 2.3% among 200,000; active means well fitted curve in the direction sought with a large enough effect; inconclusive means small, poorly fitted or top-dose-only effect, or another doubt; inactive means no such curve, though single readings can be large; an effect the other way counts as inactive or inconclusive;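 further: plate controls were enzyme without inhibitor for no effect and buffer without enzyme for full effect; nearly all actives have a fitted effect of over 40% in size; top concentration of the series not given in the record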
# Target sequence (P25779 123-467 limits assumed): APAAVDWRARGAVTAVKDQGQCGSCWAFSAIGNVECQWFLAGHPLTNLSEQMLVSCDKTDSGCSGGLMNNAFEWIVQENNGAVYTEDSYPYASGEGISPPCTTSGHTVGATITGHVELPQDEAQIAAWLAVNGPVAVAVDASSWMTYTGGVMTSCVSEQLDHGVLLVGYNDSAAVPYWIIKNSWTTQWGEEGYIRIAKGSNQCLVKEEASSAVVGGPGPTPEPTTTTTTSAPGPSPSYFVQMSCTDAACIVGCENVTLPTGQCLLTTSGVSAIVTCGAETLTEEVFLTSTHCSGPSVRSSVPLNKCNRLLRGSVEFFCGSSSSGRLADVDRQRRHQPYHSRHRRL
#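 Purified cruzain at 1.5 nM, pre-incubated 15 min with compound at room temperature in 100 mM sodium acetate pH 5.5, 5 mM DTT, 0.00005% Triton X-100. Reaction started with 2 uM Z-FR-AMC; AMC fluorescence increase over 60 s gives rate.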
# Cruzain inh Det: qHTS Assay for Promiscuous and Specific Inhibitors of Cruzain (with detergent); Potency, µM, for the others: max response, negative = inhibition, most hits filed as inhibitors; Cruzipain (Trypanosoma cruzi), P25779; hit rate 0.43% among 200,000; purified cruzain, Z-FR-AMC fluorescence, 0.01% Triton; active means well fitted curve in the direction sought with a large enough effect; inconclusive means small, poorly fitted or top-dose-only effect, or another doubt; inactive means no such curve, though single readings can be large; an effect the other way counts as inactive or inconclusive;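 further: plate controls were neutral wells for no effect and buffer without enzyme for full effect; nearly all actives have a fitted effect of over 40% in size; top concentration of the series not given in the record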
#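 Compounds were screened in titration against cruzain (1.5 nM) with 0.01% Triton X-100 to counter colloidal aggregation. Activity was the AMC fluorescence increase over 60 s after adding 2 uM Z-FR-AMC at pH 5.5.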
# MARV entry inh: qHTS for inhibitors of binding or entry into cells for Marburg Virus. Marburg virus pseudotyped entry inhibition, cell reporter; control for the full effect not named in the record; about a third of the inactives were read at about 46 µM. Potency, µM (series often up to 37.8 µM), without a hit: top-dose activity change, negative = inhibition, usual class: inhibitors. hit rate 1.8% among 300,000. AID 540276, 2011; active = well fitted inhibition curve with a large enough effect; inconclusive = small, poorly fitted or top-dose-only effect, or effect the other way; inactive = flat fitted curve, though single readings scatter; tested in HEK293 cells; about a fifth of its hits are not listed in these tables; further: on the % scale 0 is the no-effect control and ±100 the full control effect; luciferase read-out
# Numbers without * were called inactive; ? = inconclusive; . = not tested or not shown; & = joins results of further samples; [ ] = another dose, or the depositor's remark. Unless noted, the call rests on the fitted dose curve; in most records, active means well fitted rising curve with a large enough effect; inconclusive means small, poorly fitted or top-dose-only effect; inactive means no such curve, though single readings can be large or run the other way. Potency means the concentration at half of the fitted maximal effect.
SMILES,NS1 inh,RE007 growth inh,SARS PLP yeast,Lassa entry inh,StopGo reporter,Cruzain noTriton,Cruzain inh Det,MARV entry inh
COc1cccc(/C=C2/SC(=O)N(C)C2=O)c1OCc1ccc(C(=O)O)cc1,3%,4%,0%,19%[46.1 µM],-3%,.,.,?
CC1(C)CC(=O)c2cc(OCC(=O)NCCN3CCOCC3)ccc2O1,5%,22%,-1%,-1%,0%,2%,-2.3%,24%
O=C(Nc1ccc(OC(F)(F)F)cc1)Nc1cccnc1,1%,6%,-2%,.,43%[activator],.,.,.
CCN(CC(=O)Nc1c(F)cccc1F)C(=O)CCc1ccc(OC)cc1,3%,7%,1%,.,11%,.,.,8%[46.1 µM]
CCOc1ccc(C(=O)/C=C/c2ccccc2C(F)(F)F)cc1,2%,20%,0%,-6%,.,-2%,-4.6%,7%
CCOC(=O)C1CCN(C(=O)Cn2cccc2C(=O)c2ccccc2)CC1,-2%,19%,2%,-12%,5%,-4%,1.1%,2%
COc1ccc(C)cc1NC(=O)Nc1cnccn1,-4%,-3%,-1%,.,18%,.,.,.
CCOC(=O)c1oc2ccccc2c1CSc1nnc(-c2ccco2)o1,-30%,25%,-7%,2%,-25%,11%,-14%,?
O=C(NC1CCCC1)c1cccnc1N1CCCCCC1,1%,9%,5%,-7%,.,-4%,0.4%,7%
CC(=O)OC1C(=O)N(Cc2ccccc2)C1c1ccc(C)cc1 (stereo not given),.,10%,.,-24%[46.1 µM],27%,.,.,19%[46.1 µM]
Cc1cccc(NC(=O)CN(CC2CCCO2)C(=O)c2cc3ccccc3o2)c1C (stereo not given),.,19%,-2%,-15%[46.1 µM],44%[activator],.,.,27%
O=C(CN(Cc1ccccc1)S(=O)(=O)c1ccc2c(c1)OCCO2)N/N=C/c1ccc(F)cc1,24%,12%,-5%,?,.,-4%,-7.3%,-29%
Nc1nc(NC(=O)c2ccccc2Cl)nn1-c1ccccc1,2%,3%,0%,9%[46.1 µM],24%,.,.,24%[46.1 µM]
O=S(=O)(c1ccccc1)c1ccc(N2CCCCCC2)cc1,-15%,6%,-1%,.,0%,.,.,.
CCOC(=O)Nc1ccc2c(c1)N(C(=O)CN1CCN(CCO)CC1)c1ccccc1CC2,12%,-4%,15%,-2%[46.1 µM],-19%,.,.,-13%[46.1 µM]

# Given with each value named: part of the list above
O=S(=O)(c1ccccc1)c1ccc(N2CCCCCC2)cc1
  NS1 inh: -15%; RE007 growth inh: 6%; SARS PLP yeast: -1%; Lassa entry inh: .; StopGo reporter: 0%; Cruzain noTriton: .; Cruzain inh Det: .; MARV entry inh: .

O=C(CN(Cc1ccccc1)S(=O)(=O)c1ccc2c(c1)OCCO2)N/N=C/c1ccc(F)cc1
  NS1 inh: 24%; RE007 growth inh: 12%; SARS PLP yeast: -5%; Lassa entry inh: ?; StopGo reporter: .; Cruzain noTriton: -4%; Cruzain inh Det: -7.3%; MARV entry inh: -29%

CCOC(=O)C1CCN(C(=O)Cn2cccc2C(=O)c2ccccc2)CC1
  NS1 inh: -2%; RE007 growth inh: 19%; SARS PLP yeast: 2%; Lassa entry inh: -12%; StopGo reporter: 5%; Cruzain noTriton: -4%; Cruzain inh Det: 1.1%; MARV entry inh: 2%

COc1cccc(/C=C2/SC(=O)N(C)C2=O)c1OCc1ccc(C(=O)O)cc1
  NS1 inh: 3%; RE007 growth inh: 4%; SARS PLP yeast: 0%; Lassa entry inh: 19%[46.1 µM]; StopGo reporter: -3%; Cruzain noTriton: .; Cruzain inh Det: .; MARV entry inh: ?

# Continuation:
SMILES,NS1 inh,RE007 growth inh,SARS PLP yeast,Lassa entry inh,StopGo reporter,Cruzain noTriton,Cruzain inh Det,MARV entry inh
O=C(Nc1ccc(C#Cc2ccccc2)cc1)C1CC1,-3%,-6%,-19%,4.6µM*,47%[activator],-6%,2.5%,2.3µM*
Cn1c(=O)cc(OCC(=O)N2CCCc3ccccc32)c2ccccc21,-16%,-24%,1%,-1%,?,-4%,-10%,-17%
COc1ccc(-n2c(SCC(=O)NCC3CCCO3)nc3ccccc32)cc1 (stereo not given),-9%,7%,2%,-5%,-18%,18%,-1.8%,?
COc1cc(C=O)c(Br)cc1OCC(=O)NCCc1ccccc1,-15%,0%,-2%,.,5%,.,.,.
COc1ccccc1C(CNC(=O)c1cc(C)nc2ccccc12)N(C)C (stereo not given),10%,-1%,-1%,-6%[46.1 µM],-2%,.,.,5%[46.1 µM]
CC1=NN(c2nc(-c3ccc(C)cc3)cs2)C(=O)C1N=Nc1ccccc1O (stereo not given),4%,0%,-1%,?,-21%,.,.,?
O=C(O)c1cn(-c2ccc(F)cc2)c2cc(N3CCNCC3)c(F)cc2c1=O,.,-1%,.,.,-21%&2%,-5%,1.3%,.
CN(C)S(=O)(=O)c1ccc(C(=O)N2CCN=C2SCc2cccnc2)cc1,9%,-21%,20µM*,?,-20%,-8%,-1.8%,?
O=C(CC(NS(=O)(=O)c1ccc(Cl)cc1)c1ccco1)NCc1cccnc1 (stereo not given),-1%,6%,2%,0%,11%,-8%,1.6%,?
Cn1ncc([N+](=O)[O-])c1C(=O)NC1CCCCCC1,6%,-3%,-8%,.,11%,.,.,.
Cc1nc(N2CCNCC2)c2c3c(sc2n1)CCCC3,13%,-6%,-7%,.,-12%,.,.,.
O=Cc1c(NCCc2cccc(F)c2)c2ccccc2[nH]c1=O,-11%,6%,-7%,14%,21%,.,.,?
Cc1cc(NC(=O)CSc2nnc(COc3ccccc3)n2Cc2ccco2)no1,4%,0%,-11%,29%,5%,?,1.5%,-6%
Cc1cccc(N2CCN(C(=O)c3cnn(-c4ccc(F)cc4F)c3C3CCN(C(=O)OC(C)(C)C)CC3)CC2)c1C,.,.,.,?,0%,?,-0.9%,.
Cc1cc(F)ccc1S(=O)(=O)Nc1cc2c(C(=O)O)c(C)oc2c2ccccc12,.,.,.,2%[46.1 µM],-6%,-16%,-4.5%,16%[46.1 µM]
CCOc1ccc(Cl)cc1S(=O)(=O)N1CCC(C(=O)NCc2ccccn2)CC1,-14%,-14%,3%,.,6%,.,.,6%[46.1 µM]
NS(=O)(=O)OCCCc1ccccc1,17%,2%,-2%,.,-2%,.,.,.
CCc1cccc(NS(=O)(=O)c2ccc3c(c2)N(CC(=O)OC)C(=O)CS3)c1,.,.,.,11%[46.1 µM],7%,9%,-10%,.
Cc1ccc(-c2csc(CC(N)=O)n2)cc1,.,-2%,-9%,23%[46.1 µM],32%[activator],.,.,?
O=C(C1CCCN(Cc2cccc(Cl)c2)C1)N1CCCCC1 (stereo not given),?,-19%,4%,.,-17%,.,.,.
COc1ccc(OC)c(CNc2c(C=O)c(=O)[nH]c3ccccc23)c1,-2%,13%,1%,-1%,-15%,.,.,10%
N#CC(Cc1ccccc1)(Cc1ccccc1)C(=O)NN,19%,5%,5%,5%,-14%,.,.,3%
O=C(Nc1ccccc1-c1ccccc1)NC1CC2CCCC(C1)N2CCc1ccccc1 (stereo not given),-9%,3%,10%,?,5%,15%,0.8%,?
COc1ccccc1CNS(=O)(=O)c1cnc(N)nc1,.,.,.,3%[46.1 µM],2%,-16%,-1.1%,.
O=C1CNC(=S)N1Cc1ccc(F)cc1,23%,-1%,-3%,.,-24%,.,.,.
COc1cccc(C2=CC(c3cc(Br)ccc3F)n3nnnc3N2)c1 (stereo not given),.,.,.,?,-7%,-6%,-11%,.
CC(=O)c1ccc(N2CCN(c3ccc(S(=O)(=O)N4CCN(C)CC4)cn3)CC2)cc1,3%,-3%,5%,20%,0%,-12%,-7.1%,23%
COc1cc(OC)c(CN2CCCN(C)CC2)cc1Br,-6%,-6%,-1%,?,-10%,.,.,?
CCOC(=O)C1(Cc2ccccc2)CCN(Cc2ccc(COC)o2)CC1,-2%,-25%,1%,-1%,-28%,.,.,-17%[46.1 µM]
CCc1ccccc1-n1ncc(C(=O)Nc2ccc(OC)cc2)c1C,.,3%,.,?,-10%,.,.,?
COC(=O)C1=C(COc2ccc(F)cc2)NC(=O)NC1c1ccc(C)cc1C (stereo not given),12%,-11%,4%,-28%,?,0%,-1.3%,-9%
COc1ccc(OC)c(-n2c(C)cc(/C=C3\C(=N)N4N=C(CC(=O)N5CCOCC5)SC4=NC3=O)c2C)c1,23%,2%,-3%,.,-20%,.,.,.
CCOc1ccc(C(=O)Nc2ncccc2Cl)cc1,0%,3%,-2%,.,45%[activator],.,.,.
CC(OC(=O)c1nsc(Cl)c1Cl)C(=O)NCc1cccs1 (stereo not given),-103%,8%,-6%,-5%,-12%,-7%,0.6%,9%
Cc1nn(C)c(Cl)c1CN1CCC(CO)(CC2CCCCO2)CC1 (stereo not given),2%,-5%,0%,1%,-21%,.,.,?
Cc1cc(NC(=S)N(CCCN2CCN(C)CC2)Cc2ccco2)ccc1Cl,6%,4%,0%,?,-5%,.,.,?
COc1ccc(S(=O)(=O)CC(=O)c2cc3cccc(C)c3oc2=O)cc1,11%,-1%,-2%,.,13%,.,.,.
O=C(CSc1cc(Cl)ccc1Cl)NCC1CCCO1 (stereo not given),-4%,-19%,6%,13%,-18%,1%,6.6%,6%
O=C(COC(=O)c1ccccc1)NCC1CCCO1 (stereo not given),-2%,11%,5%,8%,28%,10%,2.2%,9%
Cc1ccc(OCC(=O)N(Cc2ccc(Cl)cc2)Cc2ccco2)cc1C,.,.,.,3%[46.1 µM],-14%,-14%,-11%,8%[46.1 µM]
